Compound activity from PubChem.
RanGTP-Impb inh – inhibitors of RanGTP-importin-beta interaction, primary screen, biochemical, FRET, CFP-Ran, YFP-importin-beta, homogeneous | 300,000 compounds, 1.1% hits | cell-free CFP-Ran/YFP-importin-beta FRET ratio | inhibition, % (no concentration beside the values);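 active means most replicates above 15%; inconclusive means exactly half above 15%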;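 further: 0% = DMSO wells and 100% = Ran loaded with GDP instead of GTP; wells of about 40 µL received 100 nL stock; the first replicate is given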
Beta2AR agonist – agonists of human beta-2 adrenergic receptor inducing internalization | P07550 | response, % (no concentration beside the values) | Am2.2-beta2AR cells, FAP receptor internalization, flow cytometry; reference of the scale not given here | 340,000 compounds, 0.43% hits;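 active means response above a set limit, near 3 SD of response in nonfluorescent compounds, cut at about 42% in these data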;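 further: stock transfer was 100 nL into about 11 µL; a reference agonist was the positive control; negative values mostly stem from fluorescent compounds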
ALR H2O2 inh – inhibitors of human sulfhydryl oxidase ALR | P55789 | inhibition, % (no concentration beside the values) | 290,000 compounds, 3.8% hits | purified ALR, DTT oxidation, H2O2 HRP-luminol luminescence;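 active means mean and each replicate at 75% or more; inconclusive means only one of the two met; inactive means neither met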;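 further: stock transfer was 7.5 nL into about 7.5 µL; 0% = neutral wells and 100% = wells with inactivated enzyme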
Calb FLC – C. albicans growth modulation with fluconazole; C. albicans CaCi-2 (fluconazole-resistant clinical isolate) + fluconazole, Alamar Blue growth, 48 h; growth inhibition, % (concentration not given with the values); 300,000 compounds, 0.57% hits;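 active means most replicates above 75%; inconclusive means exactly half above 75%; inactive means most below 75%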;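 further: all wells also contain fluconazole at 8 µg/ml as a sub-toxic cotreatment; 0% = median of DMSO wells and 100% = median of geldanamycin control wells; wells of about 8 µL received 7.5 nL stock; the first replicate is given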
LANA-H2A inh – blocks KSHV LANA binding to histone H2A/H2B. cell-free LANA-H2A/H2B peptide, fluorescence polarization. Q9QR71. inhibition, % (test concentration not listed). AID 2629. 320,000 compounds, 0.6% hits; in the data active means inhibition mostly above about 10%, no sharp cut-off; inactive means mostly below about 6.7%;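 further: stock transfer was 7.5 nL into about 10 µL; 0% = median of vehicle wells and 100% = median of positive control wells; one replicate is shown; the record names a cut of 25% in any replicate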
Target sequence (Q9QR71 whole entry, looked up): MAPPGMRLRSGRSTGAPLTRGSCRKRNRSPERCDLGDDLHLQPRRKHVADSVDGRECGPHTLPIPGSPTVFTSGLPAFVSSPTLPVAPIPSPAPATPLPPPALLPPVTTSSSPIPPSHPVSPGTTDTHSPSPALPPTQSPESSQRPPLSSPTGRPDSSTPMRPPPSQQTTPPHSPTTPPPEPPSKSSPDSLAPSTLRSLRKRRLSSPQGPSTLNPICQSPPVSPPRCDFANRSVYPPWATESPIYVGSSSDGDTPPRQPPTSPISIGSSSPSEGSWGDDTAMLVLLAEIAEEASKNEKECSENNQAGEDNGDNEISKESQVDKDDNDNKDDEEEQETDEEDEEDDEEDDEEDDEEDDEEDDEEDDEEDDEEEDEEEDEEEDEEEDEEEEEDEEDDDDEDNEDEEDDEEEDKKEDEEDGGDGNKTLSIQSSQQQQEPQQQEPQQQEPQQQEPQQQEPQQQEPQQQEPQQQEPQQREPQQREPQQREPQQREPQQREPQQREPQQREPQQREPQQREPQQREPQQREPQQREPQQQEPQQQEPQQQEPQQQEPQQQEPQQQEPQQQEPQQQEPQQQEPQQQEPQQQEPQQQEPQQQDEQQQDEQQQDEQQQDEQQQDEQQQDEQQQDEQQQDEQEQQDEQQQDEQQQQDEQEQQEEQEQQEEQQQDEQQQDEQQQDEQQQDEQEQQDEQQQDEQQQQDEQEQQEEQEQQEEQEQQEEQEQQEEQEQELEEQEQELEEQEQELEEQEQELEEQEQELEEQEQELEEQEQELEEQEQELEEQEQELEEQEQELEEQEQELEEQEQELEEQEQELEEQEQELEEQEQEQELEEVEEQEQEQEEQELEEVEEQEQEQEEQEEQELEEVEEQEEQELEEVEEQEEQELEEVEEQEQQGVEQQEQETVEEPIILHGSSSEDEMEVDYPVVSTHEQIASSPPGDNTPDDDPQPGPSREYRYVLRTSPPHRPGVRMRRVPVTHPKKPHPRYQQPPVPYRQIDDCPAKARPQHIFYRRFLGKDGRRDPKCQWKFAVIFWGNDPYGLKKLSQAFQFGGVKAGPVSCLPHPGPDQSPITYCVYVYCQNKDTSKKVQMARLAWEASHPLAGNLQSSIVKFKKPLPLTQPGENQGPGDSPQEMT
HNF4A DNA FP – change in binding of human HNF4 alpha to DNA | P41235 | HNF4a-FITC DNA binding, fluorescence polarization, 1 h | activity change, % at 10 µM | 360,000 compounds, 0.3% hits | AID 1224865; in the data active means activity change above about 30%, passing the limit was not always enough;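 further: controls were the assay level and a saturating level of protein; the project sought stronger binding though the title names inhibitors; some compounds called inactive have numbers as strong as hits; positive values seem to mean higher polarization but the record does not say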
Vif A3G – HIV-1 Vif–A3G interaction blockers – biochemical, TR-FRET, GST-Vif 1-94, biotin-A3G peptide, dose response retest, primary screen (AID 1117319); TR-FRET GST-Vif / biotin-A3G peptide binding; higher % means a stronger effect; test concentration not given here; strong numbers were not always called active; inhibition, %; hits with a dose series show IC50 in µM; 260,000 compounds, 0.57% hits;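 active means above the screen mean plus three standard deviations and confirmed in dose response; inconclusive means results disagree or hit not tested in dose response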;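 further: Vif residues 1-94 fused to GST binding biotinylated APOBEC3G peptide 110-148; 0% = full assay without inhibitor and 100% = GST in place of GST-Vif; retest series ran down from 100 µM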
Starred values were filed as active, the others as inactive; ? = inconclusive; . = no result given. No enrichment for hits; overall some 6.3% were active at least once.

SMILES | RanGTP-Impb inh | Beta2AR agonist | ALR H2O2 inh | Calb FLC | LANA-H2A inh | HNF4A DNA FP | Vif A3G
O=C1c2ccccc2C(=O)N1CN(C(=O)COc1ccccc1)c1ccccc1 | -0.7 | -17.5 | . | 0.3 | -2.0 | -3.1 | 0.6%
O=C(CNC(=O)c1ccc(Br)cc1)Nc1ccc2c(c1)CCC2 | . | -5.8 | 36.7 | . | -0.2 | -2.6 | .
O=C(NC(=S)Nc1ccc(N2CCOCC2)cc1)c1cccc([N+](=O)[O-])c1 | -1.2 | -8.2 | . | 1.7 | 3.0 | -0.3 | 13.5%
O=C(NCCc1ccccc1)c1ccc(Cl)c(S(=O)(=O)N2CCCC2)c1 | 6.5 | 1.1 | -3.8 | 21.2 | -5.9 | -0.3 | 4.7%
Clc1ccccc1OCCN1CCCCC1 | -0.3 | 9.7 | -2.1 | -1.3 | -2.7 | . | -2.6%
O=C(CNC(=O)c1cccs1)Nc1ccncc1 | 1.0 | -0.4 | -7.0 | 2.0 | 1.5 | 0.0 | 0.4%
COc1cccc(CN2C(=O)NC3(CCCCCC3)C2=O)c1 | -1.3 | 0.0 | -3.6 | 4.0 | 4.3 | 2.7 | .
Cc1ccc(S(=O)(=O)N2CCCC2)cc1C(=O)NCCN1CCOCC1 | -0.7 | 3.1 | -12.0 | -1.5 | 0.3 | 5.4 | 4.1%
COc1ccc(C(=O)N2CCCC(C(=O)c3ccccc3OC)C2)cc1OC (stereo not given) | 2.6 | 5.3 | 0.3 | 18.8 | 4.5 | -7.1 | .
Cc1cc(C(=O)N/N=C/c2cccnc2)n[nH]1 | 0.1 | 0.8 | -5.5 | 4.1 | -2.7 | -1.5 | 22.7%
Cc1occc1C(=O)NC1CCCCCC1 | 5.2 | 12.2 | . | -9.5 | -3.5 | -0.2 | 3.2%
CC(C(=O)O)c1ccc2c(c1)[nH]c1ccc(Cl)cc12 (stereo not given) | 1.5 | 3.5 | 0.1 | . | 0.2 | -0.1 | .
Cc1ccccc1Cn1c(C)nc2ccc([N+](=O)[O-])cc2c1=O | 0.5 | 4.0 | -48.9 | -1.9 | 8.5 | 2.4 | .
CCN(CC(=O)NC1CCS(=O)(=O)C1)S(=O)(=O)c1ccc(Br)cc1 (stereo not given) | . | -3.2 | 0.1 | . | -4.5 | 1.4 | -1.9%
COc1ccc(NC(=O)CCNS(=O)(=O)c2cccc3nsnc23)c(OC)c1 | 0.8 | -0.4 | . | 6.2 | -1.7 | 1.4 | -4.0%
O=C(NCCCO)/C(=C\c1ccco1)NC(=O)c1ccc(Br)o1 | 0.1 | 2.8 | -14.6 | -0.8 | -3.2 | -1.0 | 18.3%
O=[N+]([O-])c1ccc(N2CCN(S(=O)(=O)c3ccc(Cl)cc3)CC2)cc1NCC1CCCO1 (stereo not given) | 6.1 | -12.6 | -6.8 | -0.9 | -0.5 | -3.1 | 6.2%
Cc1ccc(S(=O)(=O)N2CCN(Cc3ccco3)CC2)c(C)c1 | 1.0 | -4.9 | -0.4 | -4.8 | -1.2 | -8.2 | .
COc1ccc(-c2cc(-c3ccc(O)cc3)nc(N)c2C#N)cc1OC | 3.9 | 15.4 | 63.8 | 14.6 | 2.5 | 0.3 | 1.6%
CCOC(=O)C1=C(COC(=O)c2ccccc2[N+](=O)[O-])NC(=O)NC1C (stereo not given) | -1.7 | 1.9 | . | 13.2 | 1.6 | -0.1 | -6.9%
Cc1c(C(=O)Nc2nccs2)oc2ccc(F)cc12 | . | -3.1 | -2.1 | . | -5.7 | -2.1 | -10.5%
O=C(NC1CCSC1=O)c1ccc(Oc2ccc(F)cc2)nc1 (stereo not given) | 4.0 | 2.2 | -22.0 | 11.2 | 1.9 | -0.8 | 0.2%
CCOC(=O)c1cc(-c2ccc(N3CCOCC3)cc2)nn1-c1ccccc1 | ? | -7.2 | 67.2 | 17.0 | 0.9 | -3.6 | 3.0%
C/C(Cc1ccccc1)=N\NC(=O)c1ccc(F)cc1 | -0.2 | -5.1 | 7.7 | -14.9 | -3.6 | -1.5 | .
CCOC(=O)N1CCN(CC(O)c2ccccc2)CC1 (stereo not given) | -1.6 | -0.9 | . | 12.1 | 0.0 | -2.8 | 0.0%
CCN(CC)C(=O)CSc1ncnc2c(-c3cccs3)nsc12 | . | -3.8 | -1.1 | . | -5.0 | -8.4 | 14.5%
O=C(NC(Cc1ccccc1)C(=O)N1CCN(S(=O)(=O)c2ccccc2)CC1)c1ccccc1 (stereo not given) | 1.9 | 5.6 | . | 2.1 | -4.3 | 3.1 | .
CC(=O)N/C(=C\c1ccccc1)C(=O)OCC(=O)NC1CCCC1 | 1.9 | -2.6 | 5.7 | -9.1 | 3.3 | 8.1 | .
O=C(Cn1cc([N+](=O)[O-])ccc1=O)NC1CCCCC1 | . | -2.3 | -2.6 | . | 5.0 | -5.1 | 3.8%
CN(C)/C=N/c1ncnc2c1cnn2-c1ccc(C(F)(F)F)cn1 | 7.4 | 0.6 | . | 13.8 | . | 5.1 | 14.9%

11 compounds out of the list, ordered by molar mass, descending.
SMILES | RanGTP-Impb inh | Beta2AR agonist | ALR H2O2 inh | Calb FLC | LANA-H2A inh | HNF4A DNA FP | Vif A3G
O=C(NC(Cc1ccccc1)C(=O)N1CCN(S(=O)(=O)c2ccccc2)CC1)c1ccccc1 (stereo not given) | 1.9 | 5.6 | . | 2.1 | -4.3 | 3.1 | .
O=C(NCCc1ccccc1)c1ccc(Cl)c(S(=O)(=O)N2CCCC2)c1 | 6.5 | 1.1 | -3.8 | 21.2 | -5.9 | -0.3 | 4.7%
O=C(NCCCO)/C(=C\c1ccco1)NC(=O)c1ccc(Br)o1 | 0.1 | 2.8 | -14.6 | -0.8 | -3.2 | -1.0 | 18.3%
CCOC(=O)c1cc(-c2ccc(N3CCOCC3)cc2)nn1-c1ccccc1 | ? | -7.2 | 67.2 | 17.0 | 0.9 | -3.6 | 3.0%
Cc1ccc(S(=O)(=O)N2CCN(Cc3ccco3)CC2)c(C)c1 | 1.0 | -4.9 | -0.4 | -4.8 | -1.2 | -8.2 | .
O=C(NC1CCSC1=O)c1ccc(Oc2ccc(F)cc2)nc1 (stereo not given) | 4.0 | 2.2 | -22.0 | 11.2 | 1.9 | -0.8 | 0.2%
CC(=O)N/C(=C\c1ccccc1)C(=O)OCC(=O)NC1CCCC1 | 1.9 | -2.6 | 5.7 | -9.1 | 3.3 | 8.1 | .
COc1cccc(CN2C(=O)NC3(CCCCCC3)C2=O)c1 | -1.3 | 0.0 | -3.6 | 4.0 | 4.3 | 2.7 | .
CCOC(=O)N1CCN(CC(O)c2ccccc2)CC1 (stereo not given) | -1.6 | -0.9 | . | 12.1 | 0.0 | -2.8 | 0.0%
O=C(CNC(=O)c1cccs1)Nc1ccncc1 | 1.0 | -0.4 | -7.0 | 2.0 | 1.5 | 0.0 | 0.4%
Cc1occc1C(=O)NC1CCCCCC1 | 5.2 | 12.2 | . | -9.5 | -3.5 | -0.2 | 3.2%

(list continues)
SMILES | RanGTP-Impb inh | Beta2AR agonist | ALR H2O2 inh | Calb FLC | LANA-H2A inh | HNF4A DNA FP | Vif A3G
N#Cc1ccc(C(=O)NC23CC4CC(CC(C4)C2)C3)cc1 | 4.6 | -2.1 | -2.3 | -5.9 | -2.6 | 4.5 | -5.0%
COc1ccc(C(C(=O)NC2CCCC2)N(C(=O)c2snc(C(N)=O)c2N)C2CCCC2)cc1OC (stereo not given) | -3.7 | -4.7 | . | -2.9 | 0.0 | 0.1 | -1.4%
COc1cc(C(=O)Nc2sc3c(c2C(=O)O)CCC3)cc(OC)c1OC | 1.9 | 9.4 | -2.6 | -16.6 | 3.1 | 0.3 | .
Cc1cc(N2C(=O)CCC2=O)ccc1NC(=O)c1cccs1 | 3.2 | -1.4 | 2.7 | . | 0.0 | 3.5 | 3.1%
Cc1ccc(SCCC(=O)Nc2ccccc2C(=O)NC(C)C)cc1 | 6.6 | -1.9 | -7.3 | -3.7 | 2.2 | -0.7 | .
C#CCOc1ccc(/C=C2/C(=O)ON=C2C)cc1Br | -0.1 | 7.0 | 74.7 | -0.4 | 4.2 | -3.2 | 4.1%
Fc1ccc(-n2c(Cc3ccccc3)nnc2SCc2nc(-c3cccs3)no2)cc1 | -6.7 | -1.9 | -4.4 | 4.7 | -5.0 | 3.5 | -1.1%
Cc1ncc(CSCC(=O)Nc2cc(C(F)(F)F)ccc2Cl)c(CO)c1O | 0.6 | 0.9 | 94.2* | 4.6 | 0.2 | 0.3 | 9.3%
O=C(c1ccco1)N1CCC(c2nc(-c3ccc(F)cc3)no2)CC1 | -0.2 | -10.8 | -5.1 | 8.8 | 1.5 | -0.5 | 30.5%
COc1ccc(C(=O)Cc2cc3cccc(OC)c3oc2=O)cc1 | 0.2 | 0.6 | -0.6 | 10.7 | -0.5 | 0.6 | -7.0%
CCN1CCC(CNCc2cn(-c3ccc(OC)cc3)nc2-c2ccccc2Cl)C1 (stereo not given) | -0.1 | 17.7 | 0.5 | -3.1 | 1.3 | 0.9 | -1.4%
Cn1cnnc1SCCNS(=O)(=O)c1cccc([N+](=O)[O-])c1 | 4.8 | -3.3 | -6.9 | -2.9 | -1.7 | -3.3 | 3.7%
CC(=O)Nc1sc(N/N=C\c2ccccc2Cl)nc1-c1cccs1 | -2.0 | -5.7 | 8.6 | -8.4 | 2.1 | 5.6 | 6.3%
CCCN=C1N(CC)C[C@@H]2[C@@H]3C(=O)N(Cc4ccccc4)C(=O)[C@@H]3[C@](Cc3ccccc3)(C(=O)OC)N12 | . | -2.8 | . | . | . | 0.6 | -5.2%
CCCCOc1ccc(CSCCN)cc1Cl | 1.4 | 12.1 | . | -35.4 | 7.4 | 2.3 | .
CCOC(=O)c1ccoc1CSCC(=O)N1CCN(S(=O)(=O)c2ccc(C)cc2)CC1 | -6.2 | 2.6 | -12.0 | 16.8 | 2.4 | 1.2 | -5.0%
CN(C)CCn1nnnc1SCC1=C(C(=O)O)N2C(=O)[C@@H](NC(=O)Cc3csc(N)n3)[C@H]2SC1 | . | -6.2 | -26.4 | . | 4.0 | -1.9 | .
CN(C)/C=N/NC(=O)c1ccc(Cl)cc1 | 1.1 | -0.6 | 14.7 | -0.4 | -6.0 | 8.1 | 4.7%
COC(=O)Cc1c(C)c2ccc(O)c(CN3CCCC(C)C3)c2oc1=O (stereo not given) | 21.9* | -2.2 | -7.7 | -25.0 | 3.6 | -2.2 | 1.5%
Cc1ccc(C2(CCN)CCOC(C(C)C)C2)cc1 (stereo not given) | ? | 3.6 | -2.7 | 3.8 | 2.1 | 4.9 | .
CCOC(=O)c1cc(Br)c(=O)n2ccccc12 | ? | -5.7 | -5.3 | -8.1 | -9.1 | -4.0 | 8.0%
COC(=O)c1sccc1NC(=O)Nc1ccc(C)cc1 | . | 2.8 | 29.1 | -4.5 | -1.3 | 1.1 | .
O=C(O)c1cccc(OCc2ccccc2Cl)c1 | -0.6 | -3.7 | -6.0 | -6.5 | -2.3 | -2.8 | 1.2%
CCOC(CCNC(=O)c1cn(CC(C)C)c(=O)c2c1c1ccccc1n2C)OCC | 0.7 | -2.1 | -1.0 | -5.9 | -1.0 | -3.0 | -7.3%
